Source: PubChem BioAssay (several laboratories)
PrP UTR inh: inhibition of PrP 5' UTR reporter expression | cell-based PrP 5' UTR mRNA reporter, plate reader | 340,000 compounds, 0.35% hits | inhibition, % (test concentration not listed);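 active means every replicate at 50% or more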;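 further: 0 = median of the neutral control wells; tested in H4 reporter cells; numbers are from one replicate; inactives centre near -14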
Mtb hypoxia rep: PubChem AID 1159583. M. tuberculosis hypoxia-regulated fluorescent reporter, fluorescence. fluorescence inhibition, % (concentration not given with the values). 300,000 compounds, 0.1% hits;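 active means 35 to 45% if threefold the growth effect, above 45% if 1.5-fold the growth effect; inactive means the rest, general growth blockers included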;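 further: wells of about 50 µL received 100 nL stock; 0% = vehicle wells and 100% = reference inhibitor wells; whole bacteria with a GFP reporter of the hypoxia response; strong numbers were not always called active; many hits fall short of the cut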
Autofluor counter: counter-screen for toxin protease inhibitors: compound fluorescence; AID 624483; compound autofluorescence counterscreen, microsphere flow cytometry; hits give high values; 360,000 compounds, 3.1% hits; fluorescence intensity (no concentration beside the values);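 active means at least 3 SD above the mean of all compounds, about 16000 in these data; inconclusive means too few beads counted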;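 further: 100 nL of 1 mM stock went into each well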
BJeLR viability: MLPCN primary cell-based screen for lethality selective to Ras in HRASV12 cells; BJeLR (HRASV12) viability, CellTiter-Glo ATP luminescence, 48 h; reference of the scale not given here; inhibition, % (no concentration beside the values); 300,000 compounds, 0.17% hits; AID 1554, 2009;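 active means replicate mean above 50%; inconclusive means above 50% but judged a plate artefact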;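 further: 50 nL library stock added to about 25 µL; numbers are from one replicate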
Sa ugtP lethal: growth inhibition of ugtP-null S. aureus, primary screen, RN4220 ugtP deletion, OD600; 16 h; some inactives read as strong as hits; growth inhibition, % (test concentration not listed); 330,000 compounds, 0.54% hits; AID 1259309, 2017;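 active means z-score under -3 and OD600 up to 0.15 on both plates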;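 further: plate controls were untreated wells for no effect and antibiotic for full effect; wells of about 80 µL received 100 nL stock; the first replicate is given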
Sa RN4220 lethal: growth inhibition of S. aureus RN4220, primary screen, OD600. inhibition, % (concentration not given with the values). 16 h. 330,000 compounds, 0.33% hits;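 active means z-score of -3 or lower and OD600 up to 0.18 on both plates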;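 further: plate controls were untreated cells for no effect and reference antibiotic for full effect; stock transfer was 100 nL into about 80 µL; one replicate is shown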
Mtb hypoxia rep growth: also measured in Mtb hypoxia rep; calls as there; growth inhibition, %; measured here: M. tuberculosis growth (absorbance);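 0% = vehicle and 100% = reference antibiotic; read after six days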
* marks the source's active call; other numbers are inactive results; ? = inconclusive; . = no result given. Compounds as they come. About 3.9% of those tested had a hit in this group.

molecule,Sa ugtP lethal,Mtb hypoxia rep,BJeLR viability,Mtb hypoxia rep growth,PrP UTR inh,Sa RN4220 lethal,Autofluor counter
COc1ccc(C(=O)/C(C)=N/O)cc1OC,.,.,-7,.,-15,.,7950
C=CCNC(=S)N(CC=C)C1CCS(=O)(=O)C1 (stereo not drawn),6,.,0,.,0,7.2,2475
Brc1ccc(CN2CCN(c3ccccn3)CC2)s1,31,10,0,3,8,10,4446
CCN1C(=O)[C@H]2[C@@H](c3ccc(C)cc3)N3C(=O)N(c4ccccc4)C(=O)[C@@]3(CC)[C@H]2C1=O,.,.,3,.,-19,.,3906
Cc1cc(Cl)ccc1C(=O)C1CCCN(C(=O)c2snnc2C)C1 (stereo not drawn),14,2,10,-11,-19,5.0,4746
O=C(NCc1ccccc1)NC12CC3CC(CC(C3)C1)C2,6,-1,1,3,-23,-0.2,4297
O=C(c1cccc2ccccc12)N1CCN(Cc2ccccc2F)CC1,8,23,4,8,-10,-0.9,4012
O=C(O)CC/C(=N\NC(=O)c1ccccc1Br)c1ccccc1,.,.,8,.,-5,.,2458
CCCNC(=O)c1onc(CSc2ccc(F)cc2)c1C(=O)NCC1CC1,-3,3,5,8,-9,5.8,4384
Cc1cc(NC(=O)CN2C(=O)c3ccccc3C2=O)no1,7,12,-1,6,-22,5.1,4676
CC(NC(=O)COC(=O)c1cc([N+](=O)[O-])ccc1N1CCOCC1)c1ccccc1 (stereo not drawn),0,8,-2,3,-15,-0.3,5553
Cc1ccc(OC(C)C(=O)Nc2ccc3c(c2)n(C)c(=O)n3C)c(C)c1 (stereo not drawn),1,5,9,-1,-39,2.6,4140
c1ccc(N2C3C4CC(C5CCCC54)C32)cc1 (stereo not drawn),14,7,.,2,-9,3.0,3666
O=C(COc1cc(Cl)c(Cl)cc1Cl)NCCc1ccccn1,4,17,.,6,-12,-9.4,3403
CSc1cccc(N2CC(C(=O)NCCC3=CCCCC3)CC2=O)c1 (stereo not drawn),-7,9,-7,-1,-12,-5.3,3647
Cc1cc(Cl)ccc1OC(C)c1nnc(N)s1 (stereo not drawn),3,-2,-2,-1,-17,7.3,16493*
CC(C)C(NC(=O)c1ccc(Cl)cc1Cl)C(=O)NCCc1ccccn1 (stereo not drawn),1,-2,.,-3,-20,3.4,.
CC[C@]12c3[nH]c4cc(-c5ccco5)ccc4c3CCN1C(=O)[C@@H](CC(=O)NCCCn1ccnc1)C[C@@H]2C(=O)N1CCN(C(=O)C2CC2)CC1,3,-7,.,9,-6,0.6,3114
COc1ccc(C2CC(c3ccccc3F)=NN2c2ccc(S(N)(=O)=O)cc2)cc1 (stereo not drawn),-15,0,.,3,-10,-9.2,3626
O=C(NNC(=O)c1ccccc1C(=O)O)c1cc2ccccc2o1,4,9,3,5,-9,3.3,4627
CS(=O)(=O)Nc1ccc(C(=O)NCCSCc2ccccc2)cc1,3,-4,4,-15,-3,-1.3,4508
Cc1cccc(C(C)C)c1NS(=O)(=O)c1cn(C)nc1C,-2,5,14,-5,-1,9.8,6751
O=C(OCc1nnc(-c2ccccc2)o1)c1cc(F)c(F)cc1Cl,8,6,9,5,2,15,4283
COc1ccc(C2=NOC(C(=O)NCc3cccs3)C2)cc1 (stereo not drawn),9,19,2,20,-58,0.8,3798
CN(CC(=O)Nc1ccc(F)cc1)C(=O)c1ccc(N2C(=O)CCC2=O)cc1,9,3,.,1,.,4.5,?
COc1ccc(NC(=O)CCS(=O)(=O)c2cccc3nonc23)c(OC)c1,-2,6,3,14,-23,3.5,3513
CC(C)Nc1nc2c(c(=O)n(C)c(=O)n2C)n1C,-8,-7,-15,-11,2,-0.7,3518
COCCCN1CCc2[nH]c(=S)[nH]c(=O)c2C1,.,.,1,.,-13,.,3109
O=C(Cn1nnc(-c2cccs2)n1)N1CCc2ccccc2C1,8,8,10,11,-20,5.3,21633*
Cc1cc(C)cc(C(=O)NCC(=O)OCC(=O)c2c(N)n(C)c(=O)n(C)c2=O)c1,-2,5,.,-4,-13,2.4,7699

Remaining list, next part:
molecule,Sa ugtP lethal,Mtb hypoxia rep,BJeLR viability,Mtb hypoxia rep growth,PrP UTR inh,Sa RN4220 lethal,Autofluor counter
COc1ccc(-n2c(O)c(C=Nc3ccccc3)c3ccccc3c2=O)cc1OC,5,0,-11,11,9,4.5,4908
CCC(CC)C(=O)Nc1cccc(-c2nc3ccccc3o2)c1,-13,-1,-3,-4,-16,4.4,11057
CC(=O)N1CCC(N(C(=O)Nc2c(F)cccc2F)C(C)C)CC1,9,14,-9,6,-3,4.3,5807
CN(CC1CCOCC1)C(=O)CC1C(=O)NCCN1Cc1cccc(F)c1 (stereo not drawn),3,8,2,-1,-14,1.2,6031
CC1Cc2ccccc2N1C(=O)Cn1cnc2c1c(=O)n(C)c(=O)n2C (stereo not drawn),10,5,-12,2,-8,3.6,5073
COc1ccc(NC(=O)CN2C(=O)C(C)Oc3ccccc32)cc1OC (stereo not drawn),2,11,2,6,-18,1.1,3403
CC(C)c1ccc(NC(=O)CCN2C(=O)[C@@H]3Cc4ccccc4CN3C2=O)cc1,11,2,1,-5,0,7.8,5258
COc1ccc(Cc2nnc(NC(=O)c3ccc(OC(C)=O)cc3)s2)cc1OC,-6,-12,3,-12,2,-3.4,3108
O=C(CSc1nnc(-c2ccncc2)s1)Nc1ccccc1,10,19,-5,6,-24,1.9,5326
Cc1noc(C)c1COc1ccccc1C(=O)NNC(=O)c1ccc(F)cc1,3,7,.,6,-15,2.6,?
COc1cccc(C(=O)C2CCCN(CC3=Cc4cc(OC)ccc4OC3)C2)c1 (stereo not drawn),17,10,-12,2,-18,2.9,2201
Cc1cccc(NC(=O)[C@@H](CC(C)C)NC(=O)[C@@H]2Cc3ccccc3CN2)c1,11,2,1,-4,-11,5.2,4124
CNC[C@H](O)c1cccc(O)c1,.,.,-2,.,-27,.,6262
CC(=O)NC12CC3CC(C1)CC(C(=O)N1CCN(c4ncccn4)CC1)(C3)C2,10,10,1,-1,-37,1.0,5889
O=C(/C=C/c1ccc(Br)cc1)NC(=S)Nc1ccc(S(=O)(=O)Nc2nccs2)cc1,6,7,-10,9,-5,3.7,2087
COc1ccc(F)cc1CSc1nnnn1-c1ccc(O)cc1,-6,10,-2,8,-19,8.2,3609
C=COCCNC(=S)Nc1ccccc1,0,8,-11,-4,-11,5.4,4906
O=C(OCC(=O)N1CCc2ccccc2C1)c1cccs1,2,9,-14,5,-19,3.1,3403
Cc1cc(C)c(NC(=O)CN2C(=O)CC(C)S(=O)(=O)c3ccccc32)c(C)c1 (stereo not drawn),6,1,14,1,-8,3.7,5783
CCOc1ccc(NC(=O)CN(C)CC(=O)NC2CCCc3ccccc32)cc1OCC (stereo not drawn),-2,3,1,2,-28,-0.2,8146
COc1ccc(C(=O)Nc2ccccc2NC(=O)c2ccco2)cc1OC,-9,14,-4,10,-22,1.4,4457
O=C(N[C@@H](Cc1c[nH]c2ccccc12)C(=O)NC1CC1)c1ccccc1Cl,4,1,-10,2,-16,-2.4,2451
Cc1ccc(C)c(N2CCN(C(=O)Cc3ccc(NC4=NC5CS(=O)(=O)CC5S4)cc3)CC2)c1 (stereo not drawn),-10,1,-6,13,-8,-4.4,5096
C[C@H](NC(=O)C1CCN(S(=O)(=O)c2ccccc2)CC1)C(=O)NCc1ccc(Cl)c(Cl)c1,4,2,0,-4,-2,-0.6,5420
O=S(=O)(NCCN1CCOCC1)c1cccc(C(F)(F)F)c1,-5,-12,-4,6,-10,-3.0,4002
Cc1ccccc1C=NNC(=O)c1ccc(-n2cnnn2)cc1,2,-3,.,-1,.,4.6,.
Cc1ccc(C(=O)N/C(=C\c2ccc3c(c2)OCO3)C(=O)N2CCOCC2)cc1,3,6,-7,-2,-27,1.7,5851
CC(C)c1ccccc1NC(=S)NCc1ccccc1F,4,-28,1,-12,-5,4.3,3761
COc1ccc(Br)cc1CN(C)C(=O)c1cc(Cl)c2c(c1)OCCO2,2,-6,-2,6,-12,-4.7,3709
COc1ccc2cc(C3CC(c4ccco4)=NN3C(=O)CCC(=O)O)c(Cl)nc2c1 (stereo not drawn),7,3,0,-2,-43,0.9,2704

Complete entries, quoted from the list. Order of screens: Sa ugtP lethal | Mtb hypoxia rep | BJeLR viability | Mtb hypoxia rep growth | PrP UTR inh | Sa RN4220 lethal | Autofluor counter
O=C(/C=C/c1ccc(Br)cc1)NC(=S)Nc1ccc(S(=O)(=O)Nc2nccs2)cc1 reads 6 | 7 | -10 | 9 | -5 | 3.7 | 2087
Cc1ccc(C)c(N2CCN(C(=O)Cc3ccc(NC4=NC5CS(=O)(=O)CC5S4)cc3)CC2)c1 (stereo not drawn) reads -10 | 1 | -6 | 13 | -8 | -4.4 | 5096
COc1ccc(C(=O)/C(C)=N/O)cc1OC reads . | . | -7 | . | -15 | . | 7950

Further entries
molecule,Sa ugtP lethal,Mtb hypoxia rep,BJeLR viability,Mtb hypoxia rep growth,PrP UTR inh,Sa RN4220 lethal,Autofluor counter
CC(C)(C)C(=O)[C@H]1[C@H](c2ccccc2)[C@@]2(N=C(c3ccccc3)OC2=O)C2c3ccccc3C=NN21 (stereo partly drawn),-1,-4,-1,-2,-19,-1.2,10338
CC(=O)Nc1ccc(OCC(O)Cn2cnc3ccccc32)cc1 (stereo not drawn),8,13,6,3,-10,3.8,9717
Cc1cc(NC(=O)CSc2nc3ccccc3n2CC(=O)N2CCCCC2)no1,12,4,0,6,-7,6.5,11050
CC1(C)Cc2ccccc2C(=NCC(=O)O)N1,-5,12,8,4,-18,6.9,4863
C(=NN1CCCCCC1)c1ccc2ccccc2n1,-9,12,.,20,94*,-2.7,4702
CN(C)Cc1c[nH]c2nc[nH]c(=O)c12,1,20,.,8,-19,0.6,3713
COc1ccccc1-c1nc(C#N)c(N2CCN(Cc3ccccc3)CC2)o1,-15,8,0,10,-11,-5.2,3115
Cc1ccc(S(=O)(=O)NNC(=O)c2ccccc2-n2cccc2)cc1,4,-1,3,-7,-17,9.5,4316
COc1ccccc1NC(=O)CSc1nnc(-c2ccc(NC(C)=O)cc2)n1C,-1,.,2,.,-21,2.2,5204
COc1ccc(N2CCN(C(=O)CCS(=O)(=O)c3ccc4c(c3)NC(=O)CO4)CC2)cc1,3,7,-3,1,-1,1.5,5850
CCOc1cc(C2CC(=O)NC3=C2C(=O)C(C(=O)OC)C(C)C3)cc(Cl)c1O (stereo not drawn),-2,.,3,.,-32,1.8,2178
CCn1cc(C(=O)NCc2ccc(Cl)cc2)c(=O)c2cc(S(=O)(=O)N3CCOCC3)ccc21,6,.,-14,.,-19,0.1,5640
CC(C)N(CCCNC(=O)CC1Oc2ccccc2NC1=O)Cc1ccccc1 (stereo not drawn),3,.,-3,.,0,-3.1,4923
